# High-throughput results: PubChem, several laboratories
# Rce1 inhib = yeast Ras-converting enzyme inhibition; yeast membranes, quenched prenylated peptide cleavage fluorescence; Q03530; calls only; AID 2563; 290,000 tested, 0.27% active;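 active = fall in fluorescence gain of 50% or more versus controls, with final raw signal at or below 3038400; inconclusive = same 50% fall but final raw signal above 3038400; inactive = fall in fluorescence gain under 50%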;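 also: plate controls were neutral control wells for no effect and wells lacking membranes for full effect; tested at 10 µM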
# Target sequence (Q03530 whole entry, looked up): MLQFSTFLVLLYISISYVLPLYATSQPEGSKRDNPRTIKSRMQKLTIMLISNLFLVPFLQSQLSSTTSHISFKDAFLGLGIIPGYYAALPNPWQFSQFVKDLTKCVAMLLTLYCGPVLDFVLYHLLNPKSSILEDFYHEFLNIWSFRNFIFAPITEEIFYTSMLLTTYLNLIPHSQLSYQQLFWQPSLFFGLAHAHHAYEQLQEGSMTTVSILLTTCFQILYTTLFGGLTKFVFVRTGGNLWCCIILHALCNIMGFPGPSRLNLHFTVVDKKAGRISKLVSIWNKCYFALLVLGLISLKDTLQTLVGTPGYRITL
# PABP FP inh = blocks human PABP binding to poly(A) RNA; P11940; 290,000 tested, 1% active; AID 2014; fluorescence polarization; inhibition, % at 35 µM;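 active = 50% or more with normal probe brightness, or confirmed in later tests; inconclusive = above 50% with abnormal brightness, or retests that disagree; inactive = below 50% or failed in later tests; about a fifth of its hits are not listed in these tables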;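 also: calls also rest on retests at 20 µM and on dose response follow-up; controls were probe without protein and protein plus probe with vehicle; some compounds called inactive have numbers as strong as hits; many hits fall short of the cut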
# Target sequence (P11940 whole entry, looked up): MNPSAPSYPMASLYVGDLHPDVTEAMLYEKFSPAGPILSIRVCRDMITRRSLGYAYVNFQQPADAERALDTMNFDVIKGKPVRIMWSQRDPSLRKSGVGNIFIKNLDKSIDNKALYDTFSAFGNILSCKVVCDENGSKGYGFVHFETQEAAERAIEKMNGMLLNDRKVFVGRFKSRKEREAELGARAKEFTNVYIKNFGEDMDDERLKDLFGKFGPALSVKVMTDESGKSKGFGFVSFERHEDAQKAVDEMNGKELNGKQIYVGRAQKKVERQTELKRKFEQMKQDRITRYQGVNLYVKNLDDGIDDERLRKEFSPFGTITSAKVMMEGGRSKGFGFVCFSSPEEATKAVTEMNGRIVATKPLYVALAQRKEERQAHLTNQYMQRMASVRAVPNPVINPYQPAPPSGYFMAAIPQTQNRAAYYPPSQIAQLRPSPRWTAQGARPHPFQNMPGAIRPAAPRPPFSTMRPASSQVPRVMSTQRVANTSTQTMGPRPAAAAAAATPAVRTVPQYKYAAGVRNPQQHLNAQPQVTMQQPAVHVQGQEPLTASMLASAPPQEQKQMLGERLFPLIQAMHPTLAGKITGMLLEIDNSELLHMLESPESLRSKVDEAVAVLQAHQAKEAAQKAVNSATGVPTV
# CSC inhib = cancer stem cell inhibition; cancer stem cell-like cells viability, luminescence; inhibition, % at 7.5 µM; 300,000 tested, 1.1% active;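 active = mean at 75% or more and at least half the replicates too; inconclusive = mean and replicates disagree; tested in HMLE shEcad cells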;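 also: 0% = median of negative and 100% = median of positive control wells; the first replicate is given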
# HIV Env fusion = inhibitors of HIV Env-mediated cell fusion | HeLa-JRFL Env/CEM21 cell fusion, luciferase | inhibition, % at 12.3 µM | 360,000 tested, 1.1% active;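 active = mean replicate inhibition score of at least 50 and every replicate individually at or above 50; inconclusive = only one of the two criteria met; inactive = mean below 50 and not all replicates reaching 50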;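 also: 0% = plate neutral controls and 100% = maraviroc near 300 nM; one replicate is shown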
# MT1-MMP act inh = inhibitors of human MT1-MMP activation | P50281 | HT1080 RFP-PRO-GFP cells, GFP/RFP ratio fluorescence, overnight; percent of plate control window, DMSO zero | GFP/RFP ratio change, % at 20 µM | 360,000 tested, 0.061% active;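 active = GFP/RFP ratio change of at least 30% with cell ATP level not reduced by more than half and red fluorescence within 50% of control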; also: strong numbers were not always called active
#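 system = RFP-PRO-GFP reporter HT1080 cells | dosing = 20 µM single dose, 1% DMSO | timing = overnight cell settling, then overnight compound exposure, 37 °C, 5% CO2 | read-out basis = GFP/RFP fluorescence ratio | controls = DMSO and RFP-L50D-GFP cell wells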
# Yeast UUG start = yeast start codon fidelity modulation; S. cerevisiae UUG-firefly luciferase reporter, luminescence/redox ratio; activity score, % at 18.7 µM; 350,000 tested, 0.13% active; AID 602363;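 active = replicate mean at a twofold rise or more, about +100% in these data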;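 also: firefly luciferase made from a UUG start codon reports start codon fidelity; reporter light over untreated wells divided by growth signal over untreated wells; some hits fall short of that in this replicate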
# eIF4H inh = inhibitors of RNA binding by human eIF4H; Q15056; eIF4H fluorescence polarization binding assay; inhibition, % at 35 µM; 290,000 tested, 0.94% active;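 active = 50% or more with normal probe brightness, or confirmed in later tests; inconclusive = above 50% with abnormal brightness, or retests that disagree; inactive = below 50% or failed in later tests; about a fifth of its hits are not listed in these tables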;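 also: calls also rest on retests at 20 µM and on dose response follow-up; 0% = protein and probe with vehicle and 100% = probe without protein; strong numbers were not always called active; many hits fall short of the cut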
# eIF4H inh retest = also measured in eIF4H inh; calls as there; inhibition, %; compound at 20 µM; confirmation average;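 mean of two retest wells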
# PABP FP inh retest = also measured in PABP FP inh; calls as there; inhibition, %; compound at 20 µM; confirmation repeats;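 mean of two retest wells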
# MT1-MMP act inh RFP = also measured in MT1-MMP act inh; calls as there; RFP signal change, %; measured here: RFP expression control read;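 0 = vehicle wells; hits needed this value within 50% of zero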
# * marks the source's active call; other numbers are inactive results; i = inactive; ? = inconclusive; . = not tested or not shown; & = joins results of further samples. Not all compounds are listed. The share of hits here may be higher or lower than overall.
SMILES,Rce1 inhib,PABP FP inh,CSC inhib,HIV Env fusion,MT1-MMP act inh,MT1-MMP act inh RFP,Yeast UUG start,eIF4H inh,others
O=c1[nH]c(-c2ccccc2)cs1,i,27.7,-10.4,.,3.2,7.9,-8.1,-7.0,
Cc1nnc(SCc2cc(=O)oc3ccc4ccccc4c23)n1Cc1ccccc1,i,-15.3,-0.9,-21.1,-2.2,3.2,.,29.6,
CCOCCCNCc1cn(-c2ccc(F)cc2F)nc1-c1ccccc1C,i,2.5,.,18.8,-0.6,-0.3,1.5,-0.9,
Cc1nc(SCc2c(F)cccc2Cl)c2c(=O)n(C)c(=O)n(C)c2n1,i,-8.1,-1.6,16.4,5.6,-1.3,-28.8,-3.3,
CCOc1ccccc1N(CC(=O)N1CCC(C(N)=O)CC1)S(=O)(=O)c1ccc(SC)cc1,i,4.8,2.6,2.7,-1.5,2.0,-0.6,-20.0,
Cc1ccc(-c2cc(C(=O)N3CCCC(C(F)(F)F)C3)c3ccccc3n2)o1 (stereo unspecified),i,.,18.4,-4.0,-4.5,-1.6,-2.7,.,
CN1CCN(CC(=O)Nc2c(C(=O)C3CC3)oc3ccccc23)CC1,i,4.7,-2.1,?,-2.6,-2.6,-11.3,-2.5,
CCN(CC)CCCNC(=O)c1oc2ccc(S(=O)(=O)N3CC(C)CC(C)C3)cc2c1C (stereo unspecified),i,7.1,0.7,17.5,4.0,1.9,-12.0,-8.2,
COc1ccc(C(=O)COC(=O)c2ccc(NC(=O)c3ccccc3)cc2)cc1,i,-3.0,-2.0,-90.4,2.0,-8.1,-15.9,-7.4,
COC(=O)c1ccc(CSc2nc3scc(-c4cccs4)c3c(=O)[nH]2)o1,i,19.6*,-3.4,3.4,2.5,5.2,-0.9,53.8*,eIF4H inh retest=69.0*;PABP FP inh retest=57.2*
CC(C(=O)NC1CCCC1)N(C(=O)Cn1nnc(-c2ccc(F)cc2)n1)c1ccccc1F (stereo unspecified),i,2.5,10.6,37.7,2.8,-2.0,-9.3,-0.3,
COC(=O)c1c(C)[nH]c(C(=O)/C=C/c2ccccc2)c1C,i,-9.2,-3.5,.,2.1,-2.0,.,-0.8,
COC(=O)c1ccc(-n2c(C)cc(-c3csc(NC(=O)c4ccc(S(=O)(=O)N(C)C)cc4)n3)c2C)cc1,i,9.9,-4.5,1.6,-3.5,2.3,-2.0,34.8,
Cc1c(C(=O)NC(=S)NCC(C)C)oc2ccccc12,i,-2.8,-9.5,-1.7,-2.7,4.3,-19.4,5.2,
COc1ccc(C(C)=O)cc1CSc1nc2ccccc2c(=O)n1-c1cccc(C)c1,i,-2.8,12.6,.,-15.4,-17.4,-16.4,-3.6,
CCOC(=O)c1cnc2c(C(F)(F)F)cccc2c1N1CCOCC1,i,7.6,-8.4,.,-3.0,-5.0,9.6,4.8,
COC1=C/C(=C/c2c(N)n3nc(CC(=O)N4CCOCC4)sc3nc2=O)C=CC1=O,i,4.6,2.8,-16.1,-33.2,2.0,-15.0,16.2,
NCCOc1ccccc1Cc1ccccc1,i,-4.7,-8.6,.,-5.3,0.6,-3.2,-4.3,
O=C1CN(C(=O)COC(=O)c2cc(Cl)ccc2[N+](=O)[O-])c2ccccc2N1,.,.,.,1.8,-2.2,3.1,-13.5,.,
O=C(O)C1CCN(S(=O)(=O)/C=C/c2ccccc2)CC1,i,12.9,-0.8,.,-6.2,3.6,3.9,-4.8,
NS(=O)(=O)c1ccc(NC(=O)c2ccc3nccnc3c2)cc1,i,-2.4,-13.2,-4.0,-0.1,2.6,3.4,-2.3,
CN(c1ccc(OCC(=O)OCC(=O)Nc2ccccc2F)cc1)S(=O)(=O)c1cccs1,i,0.8,-8.5,1.8,-0.1,1.7,-1.1,4.7,
O=C(CSc1nc2ccc(N3CCOCC3)cc2c(=O)n1CCc1ccccc1)NCC1CCCO1 (stereo unspecified),i,-13.3,28.8,19.8,3.6,-1.5,.,10.8,
CC(=O)C[C@H](O)CC(=O)[C@H]1OC(=O)CCCCCc2ccccc21,.,.,.,7.5,3.1,5.0,-15.1,.,
Cc1ccc(C(=O)NC(N(C)C)C(Cl)(Cl)Cl)cc1 (stereo unspecified),i,12.4,4.1,-0.4,1.3,-0.6,.,-9.8,
COC(=O)c1sccc1-n1cccc1C(=O)C(=O)Nc1ccc(F)cc1,i,-7.3,-8.0,-5.1,3.1,-1.2,-6.7,-6.6,
CC(=O)n1cc(C2CC(=O)OC3=C2CC(=O)C(C)(C)C3)c2ccccc21 (stereo unspecified),.,.,.,-46.1,2.5,2.9,-8.9,.,
Nc1ccc(C(=O)NC23CC4CC(CC(C4)C2)C3)cc1,i,0.3,-20.0,-8.5,0.6,-0.8,-3.8,-8.3,
Cc1ccc(C(=O)OCc2cn(-c3ccccc3)nn2)cc1,i,-5.5,-12.7,-10.2,-5.0,-3.1,3.9,4.8,
O=C(NNC(=O)c1cc2cc3ccccc3nc2s1)c1cccc(Cl)c1,i,-5.7,-2.9,.,0.2,0.5,-3.2,10.7,

# Three entries out of the list, arranged by length of the SMILES, largest number first:
SMILES,Rce1 inhib,PABP FP inh,CSC inhib,HIV Env fusion,MT1-MMP act inh,MT1-MMP act inh RFP,Yeast UUG start,eIF4H inh,others
CC(=O)C[C@H](O)CC(=O)[C@H]1OC(=O)CCCCCc2ccccc21,.,.,.,7.5,3.1,5.0,-15.1,.,
O=C(O)C1CCN(S(=O)(=O)/C=C/c2ccccc2)CC1,i,12.9,-0.8,.,-6.2,3.6,3.9,-4.8,
Nc1ccc(C(=O)NC23CC4CC(CC(C4)C2)C3)cc1,i,0.3,-20.0,-8.5,0.6,-0.8,-3.8,-8.3,

# Further entries.
SMILES,Rce1 inhib,PABP FP inh,CSC inhib,HIV Env fusion,MT1-MMP act inh,MT1-MMP act inh RFP,Yeast UUG start,eIF4H inh,others
CCS(=O)(=O)c1ccc2c(c1)N(S(C)(=O)=O)CC(C(=O)NCCOC)O2 (stereo unspecified),.,0.4,-6.2,-20.2,5.8,3.8,-17.5,4.7,
COc1ccc(NC(=O)NC2(C)CCS(=O)(=O)C2)cc1 (stereo unspecified),i,-3.1,.,5.3,-0.3,-0.9,-2.1,-2.5,
Cc1cc(C)c(S(=O)(=O)c2cccc(C)c2C)c(=O)[nH]1,i,-0.7,2.6,4.0,1.2,1.8,-5.5,11.7,
Cc1c(F)cccc1NC(=O)CCCCCC1NC(=O)NC1C (stereo unspecified),i,-6.3,-10.7,1.4,3.6,1.6,-12.1,0.4,
CCCc1c(C(=O)Nc2ccc(OC)cc2)cnn1-c1ccccc1,i,-12.2,0.2,18.5,-5.9,-7.1,-1.4,-9.8,
C/C(=N/NC(=O)c1ccc2c(c1)OCO2)c1cccc([N+](=O)[O-])c1,i,11.2,-2.7,-67.4,0.8,-0.3,3.6,0.3,
CSc1nc(N)nc2c1ncn2CC(=O)NCC1CCCO1 (stereo unspecified),.,.,.,-8.3,0.3,3.1,-10.0,.,
CC(=O)Oc1c(-c2ccc(Br)o2)oc2ccccc2c1=O,i,5.1,21.5,-14.6,-77.4,0.4,-23.9,9.7,
CCOCCCNC(=O)CN1C(=O)COc2ccc(S(=O)(=O)N3CCCCCC3)cc21,i,6.3,.,1.3,0.3,3.6,-4.8,-5.0,
CN1C(=O)/C(=C/c2ccccc2OCc2cccc(F)c2)NC1=S,i,-2.3,.,.,1.2,-2.5,.,-4.1,
CSC1=NCCN1C(=O)Cc1ccc(Cl)cc1,i,-6.3,-8.0,-20.2,0.6,4.3,-13.7,-8.5,
CC1(C)Cc2c(C#N)c(SCC(=O)c3ccccc3)nc(N3CCOCC3)c2CO1,i,3.0,45.3,.,-2.3,-3.2,.,-10.3,
Cc1ccc(S(=O)(=O)NN2C(=O)c3ccccc3NC2c2ccccc2O)cc1 (stereo unspecified),i,-3.1,.,5.5,1.1,-0.1,.,-3.7,
NC(N)=NN=C1CCC(c2ccccc2)CC1 (stereo unspecified),i,5.8,-15.9,-6.2,-0.9,2.0,-17.8,-12.6,
CC(C)(C)OC(=O)CNC(=O)c1[nH]cnc1C(=O)Nc1ccc(Cl)cc1,i,12.0,39.7,0.0,0.0,-4.8,1.0,-2.2,
COc1ccc(C(=O)COC(=O)CCn2nnc(-c3cccc(O)c3OC)n2)cc1,i,-1.4,.,.,0.0,1.2,-10.9,-3.0,
Cc1cccc(C)c1NC(=O)CN(C)C(=O)CC1CC2CCC1C2 (stereo unspecified),.,.,-2.3,.,4.2,6.7,-9.4,.,
CC(O)COc1ccc(/C(=N/O)c2ccccc2)cc1 (stereo unspecified),i,9.3,-11.9,-2.6,0.8,1.6,-8.9,-1.0,
C[C@@H]1CN([C@H](C)CO)C(=O)CCCn2nncc2CO[C@H]1CN(C)Cc1cccc2c1OCCCO2,.,.,.,-4.3,5.7,4.8,-2.6&-1.4,.,
COc1ccccc1CCNC(=O)CNC(=O)c1ccc2ccccc2c1,i,-11.9,-13.6,-6.1,-3.7,-1.1,-8.4,-3.5,
CC(C)C1=NN2C(=N)CC(=O)N=C2S1,i,-1.6,-9.0,.,-3.1,1.5,-21.8,6.4,
C=CCn1c(SCC(=O)c2cc(C)n(C(C)COC)c2C)nc2sc(C)c(C)c2c1=O (stereo unspecified),.,4.4,1.4,30.9,1.3,-3.1,7.8,-13.1,
Cn1nnnc1SCC(=O)Nc1ccccc1Br,i,4.0,6.1,-10.3,-0.1,-1.0,-14.0,-2.4,
Cc1sc2nc(SCC(=O)NCCO)n(-c3ccccc3)c(=O)c2c1C,i,-0.1,-2.6,30.4,0.7,1.4,.,5.7,
O=C(Nc1ccccc1F)c1ccncc1,i,6.8,-6.0,-134.3,-5.1,-1.3,-25.9,-2.6,
O=C(O)c1ccc(/C=N/NC(=O)c2ccc(Br)cc2)cc1,i,1.3,1.6,.,0.0,4.9,-20.6,-4.9,
Cc1ccc(-n2c(=O)c3sccc3n(Cc3cc(=O)n4ccccc4n3)c2=O)cc1,i,3.9,-5.4,-1.8,-1.7,4.2,.,2.9,
C[C@H](NC(=O)c1nc[nH]c1C(=O)NC1CCNCC1)C(=O)OC(C)(C)C,i,.,-13.9,-10.9,2.2,1.4,-12.7,.,
COCc1nnc(NC(C)=O)s1,i,2.0,0.6,-11.8,-13.7,0.6,.,-1.7,
C(=N\Nc1nc2ccccc2[nH]1)/c1ccc2c(c1)OCCO2,i,10.1,25.6,-103.2,7.9,-0.4,-45.8,2.1,
CCOc1ccc(NC(=O)Nc2cccn(Cc3ccccc3)c2=O)cc1,.,1.9,11.8,5.6,-8.3,-26.3,.,-7.1,
CCCCN1C(=O)C(CC(=O)NCCN2CCOCC2)CC(C(=O)N(C)C)=C1C (stereo unspecified),.,.,.,-6.3,0.6,6.5,2.9,.,
Cc1cc(C)n(C2CC(=O)N(c3ccc(C)c(Cl)c3)C2=O)n1 (stereo unspecified),i,10.1,-0.5,-5.5,0.4,2.6,-10.2,-2.9,
CC(=O)Nc1nc(N2C(=O)c3ccccc3C2=O)n(-c2ccccc2)n1,i,8.4,-6.0,4.6,-4.7,-2.4,-21.2,6.7,
Cc1ccc([N+](=O)[O-])cc1/C=N/Nc1nnnn1-c1ccccc1,i,2.9,-0.8,6.4,9.3,4.3,-18.3,-5.1,
CC(C)NC(=O)COC(=O)/C=C/c1ccc(F)cc1,i,6.5,-1.9,.,3.3,6.5,.,5.1,
NS(=O)(=O)c1ccc(NC(=S)N2CCN(S(=O)(=O)c3ccc(F)cc3)CC2)cc1,i,-0.7,6.0,2.0,.,.,.,-3.5,
